# Compound activity: PubChem BioAssay, National Center for Advancing Translational Sciences (NCATS)
# StopGo reporter: High Throughput Screening for Foot and Mouth Disease Virus Antivirals | human cells with a luciferase reporter of 2A StopGo recoding; control for the full effect not named in the record | AID 1159524, 2015 | Potency, µM (titrated, usually from 57.9 µM), inactives show at the top dose signal change, negative = less light | hit rate 1.2% among 410,000; active = well fitted falling curve with a large enough effect; inconclusive = small, poorly fitted or top-dose-only effect; inactive = no such curve, though single readings can be large or run the other way; tested in HEK293T cells; note: % is set by controls: 0 for no effect and ±100 for the full control effect; nearly all actives have a fitted effect of over 45% in size; luciferase light after 4 h
# Cruzain inh Det: qHTS Assay for Promiscuous and Specific Inhibitors of Cruzain (with detergent); Cruzipain (Trypanosoma cruzi), P25779; purified cruzain, Z-FR-AMC fluorescence, 0.01% Triton; Potency, µM, for inactives: max response, negative = inhibition, hits mostly inhibitors; hit rate 0.43% among 200,000; AID 1478, 2009; active = well fitted curve in the direction sought with a large enough effect; inconclusive = small, poorly fitted or top-dose-only effect, or another doubt; inactive = no such curve, though single readings can be large; an effect the other way counts as inactive or inconclusive;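 note: plate controls were neutral wells for no effect and buffer without enzyme for full effect; nearly all actives have a fitted effect of over 40% in size; top concentration of the series not given in the record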
# Target sequence (P25779 123-467 limits assumed): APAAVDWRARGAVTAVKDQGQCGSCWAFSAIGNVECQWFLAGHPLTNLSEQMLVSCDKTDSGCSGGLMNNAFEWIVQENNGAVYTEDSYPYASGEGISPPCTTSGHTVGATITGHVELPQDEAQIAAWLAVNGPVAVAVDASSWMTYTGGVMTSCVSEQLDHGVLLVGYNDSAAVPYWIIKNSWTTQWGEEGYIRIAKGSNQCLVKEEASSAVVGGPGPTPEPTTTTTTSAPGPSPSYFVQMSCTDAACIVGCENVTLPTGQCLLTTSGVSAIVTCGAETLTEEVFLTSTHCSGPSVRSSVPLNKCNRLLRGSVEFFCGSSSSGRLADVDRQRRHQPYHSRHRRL
#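 Purified cruzain (1.5 nM final) was preincubated with compounds for 15 min at room temperature in 100 mM sodium acetate pH 5.5, 5 mM DTT, 0.01% Triton X-100. Reaction started with 2 uM Z-FR-AMC; AMC fluorescence change over 60 s gave activity.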
# MARV entry inh: qHTS for inhibitors of binding or entry into cells for Marburg Virus; Marburg virus pseudotyped entry inhibition, cell reporter; control for the full effect not named in the record; about a third of the inactives were read at about 46 µM; Potency, µM (titrated, usually from 37.8 µM), for inactives: at the top dose activity change, negative = inhibition, hits mostly inhibitors; hit rate 1.8% among 300,000; active = well fitted inhibition curve with a large enough effect; inconclusive = small, poorly fitted or top-dose-only effect, or effect the other way; inactive = flat fitted curve, though single readings scatter; tested in HEK293 cells; about a fifth of its hits are not listed in these tables; note: % is set by controls: 0 for no effect and ±100 for the full control effect; luciferase read-out
# LASV entry inh: qHTS for Inhibitors of binding or entry into cells for Lassa Virus. Lassa virus pseudotype entry inhibition, cell reporter; control for the full effect not named in the record. Potency, µM (titrated, usually from 37.9 µM), without a hit: at the top dose activity change, negative = inhibition, actives largely listed as inhibitors. hit rate 1.2% among 300,000; active means well fitted inhibition curve with a large enough effect; inconclusive means small, poorly fitted or top-dose-only effect, or effect the other way; inactive means flat fitted curve, though single readings scatter; tested in HEK293 cells; note: % is set by controls: 0 for no effect and ±100 for the full control effect; nearly all actives have a fitted effect of over 50% in size; luciferase read-out
# NS1 function inh: qHTS Assay for Inhibitors of Influenza NS1 Protein Function; S. cerevisiae slowed by influenza A NS1, growth recovery by OD600; hit rate 0.4% among 270,000; Potency, µM (doses to about 46.1 µM), for the others: at the highest dose activity, positive = more growth; note: actives are rising curves; nearly all actives have a fitted effect of over 50% in size
#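 Read-out: OD600 growth recovery of NS1-expressing budding yeast. Cells grown overnight at 30C in -URA glucose medium, washed, resuspended and diluted 1:100 in 2% galactose assay medium, pH 6.0. Same strain lacking NS1 served as positive control.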
# SARS PLpro yeast: qHTS of Yeast-based Assay for SARS-CoV PLP; S. cerevisiae expressing SARS-CoV PLpro, growth rescue; control for the full effect not named in the record; Potency, µM (highest dose often 32.9 µM), for inactives: at the top dose activity, positive = growth rescue; hit rate 0.19% among 330,000; AID 485353, 2010; note: 0% is about no effect; nearly all actives have a fitted effect of over 55% in size; growth read by luminescence after 48 h
# RE007 growth inh: qHTS Assay for Inhibitors of the HIV-1 protein Vpr; S. pombe RE007 Vpr strain, BacTiter-Glo ATP luminescence, 24 h; control for the full effect not named in the record; Potency, µM (doses to about 92.2 µM), for inactives: at the top dose activity change, negative = less growth; hit rate 0.21% among 360,000; active = well fitted falling curve with a large enough effect; inconclusive = small, poorly fitted or top-dose-only effect; inactive = no such curve, though single readings can be large or run the other way;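 note: % is set by controls: 0 for no effect and ±100 for the full control effect; nearly all actives have a fitted effect of over 50% in size; the assay follows cell death caused by Vpr and the record does not say whether a fall means rescue or toxicity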
#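 Fission yeast RE007 carrying one integrated HIV-1 vpr copy, seeded at OD 0.01 in PMG+AL medium with 23 nL pinned compound. Grown 24 h at 30 degrees; viability read by BacTiter-Glo luminescence after 5 min.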
# Cruzain noTriton: qHTS Assay for Promiscuous and Specific Inhibitors of Cruzain (without detergent). purified cruzain, Z-FR-AMC fluorescence, no detergent. Potency, µM, for the others: max response, negative = inhibition, hits mostly inhibitors. AID 1476, 2009. hit rate 2.3% among 200,000; active = well fitted curve in the direction sought with a large enough effect; inconclusive = small, poorly fitted or top-dose-only effect, or another doubt; inactive = no such curve, though single readings can be large; an effect the other way counts as inactive or inconclusive;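 note: plate controls were enzyme without inhibitor for no effect and buffer without enzyme for full effect; nearly all actives have a fitted effect of over 40% in size; top concentration of the series not given in the record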
#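 Purified cruzain at 1.5 nM, pre-incubated 15 min with compound at room temperature in 100 mM sodium acetate pH 5.5, 5 mM DTT, 0.00005% Triton X-100. Reaction started with 2 uM Z-FR-AMC; AMC fluorescence increase over 60 s gives rate.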
# Active calls of the source: *; ? = inconclusive; . = no result given; & = joins results of further samples; [ ] = dose if it differs, or a comment. Unless noted, calls come from the whole dose curve; as a rule, active means well fitted rising curve with a large enough effect; inconclusive means small, poorly fitted or top-dose-only effect; inactive means no such curve, though single readings can be large or run the other way. Potency is the fitted concentration of half-maximal effect. Rows were taken by chance. Share with any hit: about 4.7%.
SMILES,StopGo reporter,Cruzain inh Det,MARV entry inh,LASV entry inh,NS1 function inh,SARS PLpro yeast,RE007 growth inh,Cruzain noTriton
CCNC(=S)N1CCc2cc(OC)c(OC)cc2C1COc1ccccc1OC (stereo not given),3%,.,-20%[46.1 µM],.,.,4%,-15%,.
O=C(C[n+]1cc(Br)cc2ccccc21)c1ccc(F)cc1,-26%,.,.,.,3%,-2%,-8%,.
c1cncc(-c2nc3ccccc3[nH]2)c1,17%,3.5%,?,11%,0%&12%,-1%&-3%,4%,-14%
CCCCN(Cc1cc2ccccc2[nH]c1=O)S(C)(=O)=O,-10%,-3.8%,-17%,-20%,-1%,7%,-10%,-4%
Cc1cc(NC(=O)C2CC2)ncc1NC(=O)C12CC3CC(CC(C3)C1)C2,-2%,4.3%,?,-5%,-2%,?,5%,-6%
Cc1ccc(S(=O)(=O)N2CCC3(CC2)OCCN3S(=O)(=O)c2c(C)cc(C)cc2C)cc1,-13%,.,6%,?,.,5%,0%,.
CC(C)CNP(=S)(c1ccccc1)C(C)(C)C (stereo not given),49%[activator],.,.,.,0%,-1%,10%,.
CN(C)c1ccc(CN(C(=O)c2ccccc2Br)C2CCS(=O)(=O)C2)cc1 (stereo not given),-16%,.,.,.,-9%,2%,1%,.
Cc1ccc2nc(-c3ccccc3)nn2c1,11µM*,.,8.9µM*,1.1µM*,.,.,?,.
CCOC(=O)C1CCCN(C(=O)c2ccc3c(c2)NC(=O)C(N2CCOCC2)S3)C1 (stereo not given),-1%,1.3%,?,-1%,6%,-5%,-5%,-4%
C=CCOC(=O)C1=C(C)NC(=O)NC1c1ccc(OCC)cc1 (stereo not given),-14%,.,-12%,?,12%,11%,-11%,.
O=C(c1ccc(Cl)cc1)N1C2C=CC(C2)C1(C(F)(F)F)C(F)(F)F (stereo not given),?,-3.3%,18%,0%,1%,-11%,-10%,-4%
COc1ccc(C(C)=O)cc1COC(=O)c1cccnc1SC,3%,.,-10%[46.1 µM],13%,.,1%,3%,.
C=CCOn1c(C)c(C(C)=O)c2c3no[n+]([O-])c3ccc21,-17%,-14%,20%,11%,-4%,0%,20%,-5%
CC(=O)c1cc(CN2CCC(n3nccc3NC(=O)c3ccccc3C)CC2)cs1,-8%,.,14%,8%,12%,-2%,-14%,.
CCCCCCOC(=O)CCc1c(C)nc(N)[nH]c1=O,37%[activator],-2.8%,2%,-4%,0%,-4%,3%,5%
CCOC(=O)CNC(=O)CSc1nc2cccnc2n1Cc1ccccc1,1%,1.1%,?,12%,-6%,5%,-25%,-2%
Cc1cc(C)c(S(=O)(=O)NCCc2sc3nc(-c4ccc(F)cc4)nn3c2C)c(C)c1,30%[activator],-6.8%,.,24%[46.1 µM],.,.,.,28%
O=C(NCc1ccco1)/C(=C/c1ccco1)NC(=O)c1ccc(Br)o1,-6%,-8.7%,30%,19%,16%,25%,-6%,-12%
COc1ccccc1CNC(=O)COc1ccc(C)cc1,8%,.,?,-11%,-16%,-4%,2%,.
CCOc1ccc(C(=O)NCC(=O)NCCCn2nc(C)cc2C)cc1OCC,-8%,.,24%,3%,5%,-2%,-6%,.
COc1ccc(CNS(=O)(=O)c2cc3c4c(c2)CCN4C(=O)CC3)cc1,7%&-16%,-1.1%,?,?,.,-5%,6%,-3%
CC(C)(C)C(=O)Nc1ncccc1C(O)c1cccc(C(F)(F)F)c1 (stereo not given),-8%,.,-29%[46.1 µM],13%[46.1 µM],.,0%,6%,.
CN(C)c1ccc(-c2noc(C3CC(=O)N(c4ccc5c(c4)OCCO5)C3)n2)cc1 (stereo not given),-26%,-2.3%,.,-13%[46.1 µM],.,.,.,-19%
C[C@H](NC(=O)c1nc[nH]c1C(=O)NC1CCN(C(=O)OC(C)(C)C)CC1)C(=O)OCc1ccccc1,-14%,.,.,.,-2%,1%,-5%,.
CCN1CCN(c2ncc3c(n2)CCN(Cc2ccc(Br)s2)C3)CC1,-19%,-3.2%,.,?,.,.,.,-6%
CC1CCN(c2nc(Cl)nc(Nc3ccc([N+](=O)[O-])cc3)n2)CC1,-23%,-7.6%,?,-5%,10%,-104%,5%,-21%
O=c1n(Cc2ccccc2Cl)nc2n1-c1ccccc1SC2,51%[activator],.,.,.,-2%,-2%,-17%,.
COc1ccc(S(=O)(=O)N(Cc2cccnc2)Cc2cc3ccccc3[nH]c2=O)cc1,20%,.,.,.,-14%,-3%,-10%,.
COc1ccc(C)cc1N(CC(=O)NCCN1CCOCC1)S(=O)(=O)c1ccccc1,-1%,.,7%,3%,.,.,-20%,.
O=C(COc1ccc([N+](=O)[O-])cc1)Nn1cnnc1,-13%,.,-1%[46.1 µM],-1%,.,-1%,-6%,.
O=C(Nc1ccc2nsnc2c1)NC1CCCCC1,30%,-8.7%,0%,?,-7%,-7%,49%,1%
CCCCCn1nc(C(=O)OCc2nc(N)nc(Nc3ccccc3)n2)c2ccccc2c1=O,-20%,.,?,-21%[46.1 µM],.,-7%,15%,.
CCOc1cc(/C=N/NC(=O)C(=O)N/N=C/c2ccc(O)c(OCC)c2)ccc1O,-13%,.,-14%,-11%,18%,3%,3%,.
Cc1cc([N+](=O)[O-])nn1CC(=O)Nc1cnc2ccccc2c1,-6%,.,0%[46.1 µM],.,.,-11%,-11%,.
Cc1ccc(-c2csc(N3CCC(NS(=O)(=O)c4ccc5c(c4)OCCO5)CC3)n2)cc1,?,3.7%,?,?,?,-5%,-11%,?
Cn1ncc2c(NCc3cccc(Cl)c3)ncnc21,-16%,5.7%,.,16%[46.1 µM],.,.,.,-3%
O=C(CN1C(=O)NC2(CCCCCC2)C1=O)N1CCC(Cc2ccccc2)CC1,?,-0.9%,?,?,-2%,-3%,-11%,-20%
CC(C)CCNC(=O)C1CC(=O)N(C2CCCC2)C1 (stereo not given),17%,6.4%,5%,-3%,0%,12%,20%,1%
O=C1C2CCCN2C(c2ccccc2)N1c1nccs1 (stereo not given),59%[activator],3.0%,-5%,12%,3%,7%,-30%,-15%
CC(=O)NS(=O)(=O)c1ccc(NC(=O)CC(C)c2ccccc2)cc1 (stereo not given),-3%,.,?,15%[46.1 µM],-1%,1%,5%,.
OCCNCCOc1ccccc1F,-11%,6.6%,-5%,-9%,5%,1%,-11%,-7%
O=C(Oc1ccc2[nH]cc(CCN3C(=O)c4ccccc4C3=O)c2c1)c1ccco1,.,-2.5%,12%,14%,-41%,-3%,-3%,?
N#Cc1ccsc1NC(=O)CN1CCN(c2ccccc2O)CC1,-4%,3.5%,?,?,-3%,4%,40%,0%
CCOc1nc(NCCN2CCOCC2)nc(Nc2ccc(C)cc2)n1,20%,-3.6%,-3%,2%,4%,-1%,10%,-4%
COc1ccc(-c2[nH]ncc2CN2CCC(C(=O)c3ccc(F)cc3)CC2)cc1,?,.,?,14%[46.1 µM],2%,1%,-21%,.
S=c1nc(Cc2ccc(Cl)cc2)[nH]c2ccccc12,-9%,.,?,3%[46.1 µM],.,10%,-16%,.
C[C@]12CC[C@H](N)CC1=CCC1C2CC[C@@]2(C)C1CC[C@@H]2O (stereo not given in full),-10%,.,?,?,.,-4%,-2%,.
CCOCCCn1c(SCC(=O)Nc2ccc(OC)cc2OC)nc2ccccc2c1=O,-10%,0.5%,.,-3%[46.1 µM],.,.,.,-2%
Cc1ccc(NC(=O)CNC(=O)c2ccccc2F)cc1Cl,77%[activator],7.2%,3%,?,-5%,?,-1%,?
N#C/C(=C(/O)c1cccc(F)c1)c1nc2ccccc2s1,-3%,.,.,.,-34%,-3%,-6%,.
Cc1cc2c(cc1S(=O)(=O)N(C)Cc1ccccc1)n(C)c(=O)c(=O)n2C,-27%,.,.,.,7%,-4%,2%,.
O=C(c1ccc(F)cc1)c1cnc(Nc2ccccc2)s1,42%[activator],.,?,?,-3%,3%,-16%,.
O=C(NCCCN1CCCC1)c1ccc(CS(=O)(=O)c2ccc(Cl)cc2)o1,-8%,.,.,.,14%,?,-7%,.
Cc1ccc(NC(=O)Nc2nnc(N(C)Cc3ccccc3)s2)cc1,-18%,-8.5%,?,-24%[46.1 µM],.,.,.,2%
Cc1cccc(N(CC(=O)NCc2ccc3c(c2)OCO3)C(=O)CCC(=O)Nc2ccccn2)c1C,?,-5.6%,-28%[46.1 µM],?,-66%,16%,0%,17%
COc1ccc(OC)c(CNC(=O)COc2cc(=O)n(C)c3ccccc23)c1,-17%,.,-9%,-4%,-2%,.,-19%,.
CCc1ccc2[nH]c(=O)c(CN(Cc3ccco3)S(=O)(=O)c3ccc4c(c3)OCCO4)cc2c1,25%,-2.4%,7%&-17%,23%,-8%,-2%,9%,-3%
CCOc1ccc(NC(=O)CC2C(=O)N(c3ccc(C)cc3)C(=O)N2Cc2ccc(OC)cc2)cc1 (stereo not given),-4%,-4.6%,-19%[46.1 µM],?,.,.,.,9%
O=C(NCCc1ccc(Cl)cc1)C1CCN(S(=O)(=O)c2cccc3nonc23)CC1,-20%,5.4%,?,-6%,?,4%,4%,?

# Next section
SMILES,StopGo reporter,Cruzain inh Det,MARV entry inh,LASV entry inh,NS1 function inh,SARS PLpro yeast,RE007 growth inh,Cruzain noTriton
Cc1ccc(S(=O)(=O)N(C)C)cc1NC(=O)COC(=O)Cc1ccc(Br)cc1,-20%,.,?,12%,.,-1%,-4%,.
O=C(NCCCCCNC(=O)c1ccco1)c1ccco1,-15%,5.2%,13%,6%,-7%,2%,12%,2%
CC(C)c1ccc(S(=O)(=O)N2CCN(C(=O)c3cc([N+](=O)[O-])ccc3N3CCOCC3)CC2)cc1,?,.,.,.,15%,8%,-11%,.
Cc1ccc(C(=O)NC(=S)NNC(=O)c2ccccc2)cc1,10%,.,.,.,-152%,-12%,-26%,.
CNC(=O)[C@H]1O[C@@H](n2cnc3c(NCc4ccc(N)cc4)ncnc32)[C@H](O)[C@H]1O,.,2.1%,41%,.,-3%,.,.,6%
